RE007 growth inh: qHTS Assay for Inhibitors of the HIV-1 protein Vpr; S. pombe RE007 Vpr strain, BacTiter-Glo ATP luminescence, 24 h; control for the full effect not named in the record; Potency, µM (highest dose often 92.2 µM), inactives show at the highest dose activity change, negative = less growth; 0.21% of 360,000 active; active = well fitted falling curve with a large enough effect; inconclusive = small, poorly fitted or top-dose-only effect; inactive = no such curve, though single readings can be large or run the other way;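 further: on the % scale 0 is the no-effect control and ±100 the full control effect; nearly all actives have a fitted effect of over 50% in size; the assay follows cell death caused by Vpr and the record does not say whether a fall means rescue or toxicity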
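Fission yeast RE007 carrying one integrated HIV-1 vpr copy, seeded at OD 0.01 in PMG+AL medium with 23 nL pinned compound. Grown 24 h at 30 degrees; viability read by BacTiter-Glo luminescence after 5 min.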
StopGo reporter: High Throughput Screening for Foot and Mouth Disease Virus Antivirals; human cells with a luciferase reporter of 2A StopGo recoding; control for the full effect not named in the record; Potency, µM (titrated, usually from 57.9 µM), without a hit: top-dose signal change, negative = less light; AID 1159524, 2015; 1.2% of 410,000 active; active = well fitted falling curve with a large enough effect; inconclusive = small, poorly fitted or top-dose-only effect; inactive = no such curve, though single readings can be large or run the other way; tested in HEK293T cells; further: on the % scale 0 is the no-effect control and ±100 the full control effect; nearly all actives have a fitted effect of over 45% in size; luciferase light after 4 h
SARS PLP yeast: qHTS of Yeast-based Assay for SARS-CoV PLP; Potency, µM (titrated, usually from 32.9 µM), without a hit: at the top dose activity, positive = growth rescue; S. cerevisiae expressing SARS-CoV PLpro, growth rescue; control for the full effect not named in the record; 0.19% of 330,000 active; active means well fitted rising curve with a large enough effect; inconclusive means small, poorly fitted or top-dose-only effect; inactive means no such curve, though single readings can be large or run the other way; further: 0% is about no effect; nearly all actives have a fitted effect of over 55% in size; growth read by luminescence after 48 h
* marks the source's active call; other numbers are inactive results; u = inconclusive; [ ] = dose if it differs, or a comment. Potency means the concentration at half of the fitted maximal effect.

| compound | SARS PLP yeast | StopGo reporter | RE007 growth inh |
| --- | --- | --- | --- |
| COc1cc2[nH]c(=O)n(CCC(=O)N3CCN(Cc4ccc5c(c4)OCO5)CC3)c(=O)c2cc1OC | -4% | -15% | 8% |
| CCN(CC)S(=O)(=O)c1ccc(N2CC(C(=O)N3CCOCC3)CC2=O)cc1 (stereo not drawn) | -2% | -22% | -9% |
| NCCCCCC(=O)OC1N=C(c2ccccc2Cl)c2cc(Br)ccc2NC1=O (stereo not drawn) | -4% | -25% | 8% |
| Cc1cc(C(=O)NNC(=O)c2ccc(Cl)cc2)c2ccccc2n1 | 1% | 17% | -4% |
| O=C(NCc1cccc(C(F)(F)F)c1)c1cccc2c1C(=O)c1ccc(N3CCC(Cc4ccccc4)CC3)cc1S2(=O)=O | 3% | -29% | 8% |
| CC(C)NC(=O)CCCc1c[nH]c2ccccc12 | -6% | -10% | 7% |
| FC(F)(F)c1ccccc1/C=N/Nc1ccccn1 | -1% | 30% | -28% |
| C[C@H](NC(=O)c1[nH]cnc1C(=O)Nc1ccon1)c1ccccc1 | 3% | -18% | 6% |
| Cc1nnc(NC(=O)c2cc(S(=O)(=O)N(C)C)ccc2N2CCCC2)s1 | 0% | -10% | 5% |
| CC[C@]12c3[nH]c4cc(CCC(=O)N(C)C)ccc4c3CCN1C(=O)[C@@H](CC(=O)NCCc1ccccn1)C[C@@H]2C(=O)N1CCN(C(=O)C2CC2)CC1 | 3% | 5% | -1% |
| COc1cccc(C(=O)Nc2cc(C(=O)NCc3ccc(C)cc3)ccc2N2CCC3(CC2)CC(c2cccc(Br)c2)=NO3)c1 | -3% | 10% | 13% |
| C[C@H](CO)N1C[C@H](C)[C@@H](CN(C)C(=O)Nc2ccccc2)Oc2c(NC(=O)Nc3ccc(C(F)(F)F)cc3)cccc2C1=O | -16% | -14% | 3% |
| CC(NC(=O)COC(=O)C1CCN(c2ccc(C(F)(F)F)cn2)CC1)c1ccc(F)cc1 (stereo not drawn) | 3% | -19% | -12% |
| C/C(=C\COc1ccc2ccc(=O)oc2c1)CC[C@@H](O)C(C)(C)O | -1% | 18% | 15% |
| Cc1ccc(Cn2nc(C)c(C(=O)N3CCN(S(=O)(=O)/C=C/c4ccccc4)CC3)c2C)cc1 | 2% | u | -4% |
| O=C(CNC(=O)c1ccc(F)cc1)NCc1ccccn1 | -2% | 5% | -16% |
| COc1cc(CNCc2ccccc2C(F)(F)F)cc(OC)c1 | 0% | -17% | -14% |
| COc1ccc(N(C(C)C(=O)NN=C2CCCC2)S(C)(=O)=O)cc1 (stereo not drawn) | 11µM* | 1% | 9% |
| C=CC[C@@H](CC(=O)N(CCO)Cc1ccccc1)C(=O)N[C@H](COC(=O)[C@@H](CC=C)Cc1ccc(F)cc1)c1ccccc1 | 1% | u | -1% |
| CN(c1ccc(OC(=O)c2ccc(-n3cncn3)c([N+](=O)[O-])c2)cc1)S(=O)(=O)c1ccccc1 | 0% | -3% | -24% |
| O=C(COC(=O)/C=C/c1ccccc1)NC1CCCC1 | -3% | 28% | -8% |
| O=C(COC(=O)COc1ccccc1)NCCC1=CCCCC1 | -6% | -13% | 5% |
| CC(C)(C)NC(=O)COC(=O)c1ccccc1C(=O)c1ccccc1 | 1% | -3% | 0% |
| Cc1cc(Br)ccc1NC(=O)CSCc1c(C)noc1C | -4% | 0% | -2% |
| c1ccc(-c2ccncc2)cc1 | -1% | -10% | -5% |
| COc1ccc(N2C(=O)C(CC(=O)Nc3ccc(F)cc3)N(CCc3ccc(OC)c(OC)c3)C2=O)cc1 (stereo not drawn) | 1% | -8% | 12% |
| Cc1ccc(NC(=O)COC(=O)c2cc(=O)c3ccccc3o2)c(Br)c1 | 7% | 0% | 0% |
| O=C(O)c1cccc2c1C(=O)c1cc(Br)ccc1S2(=O)=O | -2% | -11% | -1% |
| Cc1ccc(S(=O)(=O)N2[C@@H](c3ccccc3)C(C(=O)O)=CC[C@H]2c2ccc3c(c2)OCO3)cc1 | 0% | 47%[activator] | -7% |
| O=C1CC[C@H](O)CCN1[C@H](CSc1ccc(Br)cc1)Cc1ccccc1 | 2% | -18% | -6% |
| N#Cc1ccc(C#Cc2ccc3oc4ccccc4c(=O)c3c2)cc1 | -26% | 4% | -1% |
| CC[C@]1(C(=O)OC)[C@H]2C(=O)N(Cc3ccccc3)C(=O)[C@H]2[C@H]2CN(C)C(=NCc3ccccc3)N21 | -7% | -7% | -6% |
| O=C(NCc1ccc(OC(F)(F)F)cc1)c1cccc2c1C(=O)c1ccc(N3CCC(Cc4ccccc4)CC3)cc1S2(=O)=O | 8% | u | -11% |
| CCc1ccccc1NC(=O)CNC(=O)CNC(=O)c1cccs1 | 1% | -10% | 7% |
| COc1ccc(CN(C)C(=O)Cn2cnc(C(=O)Nc3ccc(C)c(C)c3)n2)cc1OC | 6% | 1% | -17% |
| COC12CCC3(CC1C(C)(O)C(C)(C)C)[C@H]1Cc4ccc(OC5OC(C(=O)O)[C@@H](O)C(O)[C@H]5O)c5c4[C@@]3(CCN1CC1CC1)C2O5 (stereo partly drawn) | 3% | -12% | -10% |
| COc1cccc(OC)c1C(=O)Nc1cccc(S(=O)(=O)Nc2ccccc2Cl)c1 | -5% | -2% | 8% |
| COc1ccc(S(=O)(=O)N2CCN(C(=O)c3cc(C)nc4ccccc34)CC2)cc1OC | -1% | 0% | 2% |
| CNC(=O)COc1ncnc2scc(-c3ccc(F)cc3)c12 | 1% | -12% | -6% |
| NS(=O)(=O)c1ccc(N2CCOCC2)c(C(=O)NCCCSc2ccccc2)c1 | -5% | -17% | 1% |
| CCc1ccccc1NC(=O)CN(C)C(=O)c1cc(C2CC2)nc2c1cnn2C(C)C | -3% | -4% | -5% |
| CC1(C)Cc2cccc(OCC(=O)Nc3cc(S(C)(=O)=O)ccc3Cl)c2O1 | 4% | u | -23% |
| CCCCN(C(=O)c1cc(-c2ccco2)nc2ccccc12)c1c(N)n(CCC)c(=O)[nH]c1=O | 2% | -3% | 0% |
| CC(C)N(Cc1ccccc1)C(=O)CN1C(=O)NC2(CCCC2)C1=O | 5% | -7% | -1% |
| COc1cccc(-c2sc3ccc(OC)cc3c2-c2cc(F)cc(OC)c2)c1 | -1% | -13% | -10% |
| CCCCN1CC(=O)N2[C@H]3c4cc(OC)ccc4OC[C@@H]3[C@H](C(=O)OCC)[C@]2(C)C1=O | 4% | 1% | 7% |
| O=C(CN1C(=O)NC2(CCCC2)C1=O)NNC(=O)c1ccccc1F | -18% | -2% | -1% |
| Cc1ccc([C@@H]2CC=C(C(=O)O)[C@H](c3ccc(Cl)cc3)N2S(=O)(=O)c2ccccc2C)cc1 | -5% | -30% | 3% |
| COc1ccc(NC(=O)CN(C)S(=O)(=O)c2ccc(Cl)cc2)cn1 | -4% | -8% | 17% |
| Cc1ccc(NC(=O)COC(=O)c2c(C)nn(-c3ccccc3)c2C)cc1 | -10% | -18% | 23% |
| CCOC(=O)[C@@H]1[C@H]2COc3ccccc3[C@@H]2N2C(=O)N(c3ccc(Br)cc3)C(=O)[C@]12C | -2% | 3% | 0% |
| Cc1ccc(C)c(N2CCN(C(=O)CCc3nc(-c4ccccc4C(F)(F)F)no3)CC2)c1 | -12% | -5% | -9% |
| O=C(O)c1ccc(N2C(=O)c3[nH]nc(-c4ccccc4)c3C2c2ccccc2)cc1 (stereo not drawn) | 3% | -8% | 8% |
| COC(=O)c1sc2nc(C)nc(SCC(=O)Nc3sccc3C(N)=O)c2c1C | 1% | u | -1% |
| Cn1cc(S(=O)(=O)NC[C@H]2O[C@@H](n3cnc4c(N)ncnc43)[C@H](O)[C@@H]2O)cn1 | -2% | 5% | 5% |
| Cc1occc1C(=O)NNC(=O)c1ccccc1F | -4% | 25% | 2% |
| O=C(CCc1ccc(S(=O)(=O)N2CCOCC2)cc1)Nc1c(F)cccc1F | 0% | -12% | -8% |
| Cc1oc(-c2ccccc2)nc1C(=O)OCC(=O)NCc1ccccc1 | -4% | -14% | 3% |
| C[C@H]1CN=C(N(C)C)N1CCc1cccc(F)c1 | -2% | -3% | -11% |
| C=CCn1c(COc2ccc(OC)cc2)nnc1SC(C)C(=O)NC1CC1 (stereo not drawn) | 2% | -5% | -6% |

Continuation.
| compound | SARS PLP yeast | StopGo reporter | RE007 growth inh |
| --- | --- | --- | --- |
| CN(CC(=O)NCc1ccc2c(c1)OCO2)CC(=O)Nc1ccc(F)c(F)c1F | 1% | -13% | 7% |
| CN(C(=O)c1cccc(S(=O)(=O)N2CCOCC2)c1)c1c(N)n(Cc2ccccc2)c(=O)[nH]c1=O | 2% | -16% | -3% |
| Cc1cc(C(=O)CCC(=O)N2CCN(c3ccccc3O)CC2)c(C)s1 | -2% | -26% | 2% |
| O=C(CCNC(=O)c1ccc(Cl)cc1)Nc1nc2ccccc2[nH]1 | 1% | 1% | 11% |
| CC(C)(C)c1ccc(NC(=O)C(=O)C2C(=O)Nc3ccccc32)cc1 (stereo not drawn) | 1% | 44%[activator] | 2% |
| COc1ccccc1NC(=O)CON=C(N)CC(=O)NC1CCCCC1 | 6% | -9% | 10% |
| Cc1c(C2(O)CCCCC2)[nH]c2ccc(C(F)(F)F)cc12 | -2% | u | 40µM* |
| Cc1onc(-c2c(F)cccc2Cl)c1C(=O)NCc1ccc(S(N)(=O)=O)cc1 | -2% | -7% | 0% |
| COC(=O)C1=C(c2cccc(C#N)c2)C[C@@H]2CC[C@H]1N2C(=O)NCCOc1ccccc1 | 0% | -16% | -3% |
| Cc1ccc([N+](=O)[O-])cc1S(=O)(=O)Nc1ccc(C(=O)N2CCN(C(=O)c3ccco3)CC2)cc1 | -6% | 13% | 12% |
| Cc1cccc(C(=S)N2CCOCC2)n1 | 1% | -24% | 3% |
| O=C(NN=C1C2CC3CC1CC(Cl)(C3)C2)c1ccccn1 | -1% | 2% | -5% |
| COc1cc(Cl)c(C)cc1NC(=O)COC(=O)C1=NN(c2ccccc2)C(=O)CC1 | -2% | -12% | 3% |
| CC1CCN(C(=O)CN2C(=O)NC(c3ccccc3)(c3ccccc3)C2=O)CC1 | -6% | -14% | 6% |
| CC(NC(=O)C(NS(=O)(=O)c1cccs1)C(C)C)c1ccc(S(N)(=O)=O)cc1 (stereo not drawn) | 0% | -7% | 5% |
| Cc1cc(N/C=C/C(=O)c2cccs2)ccc1F | 0% | 22% | -24% |
| O=C(NOCc1ccccc1)c1ccc(Cl)cc1 | 7% | -8% | 0% |
| COc1ccc(N2C(=O)C(F)(F)C2c2ccccc2F)cc1 (stereo not drawn) | -1% | 11% | -1% |
| CCN(CC)S(=O)(=O)c1ccc(C(=O)N2CCN(C(=O)c3ccco3)CC2)cc1 | -5% | -20% | -9% |
| O=C(Cc1cccc(NC(=O)C2CCCN(C(=O)C3CC3)C2)c1)Nc1cccc(C(=O)N2CCCC2)c1 (stereo not drawn) | -1% | 5% | -2% |
| N#Cc1ccc(C23OCCN2CCn2nc4ccccc4c23)cc1 (stereo not drawn) | 0% | -7% | -7% |
| CC(=O)c1ccc(N2CCC(C)CC2)c(F)c1 | -3% | 42%[activator] | -24% |
| CCOC(=O)C1CCN(C(=O)COC(=O)/C=C/c2ccc([N+](=O)[O-])cc2)CC1 | -1% | 1% | -5% |
| Cn1[nH]c(C(F)(F)F)cc1=O | -2% | 20% | 5% |
| CCOC(=O)C1=CN(Cc2cccc(F)c2)S(=O)(=O)NC1c1ccc(Br)cc1F (stereo not drawn) | -77% | -14% | 3% |
| COC(=O)C1=C(c2ccc(F)cc2OCc2ccccc2)C[C@@H]2CC[C@H]1N2C(=O)NC1CCCCC1 | -3% | u | 9% |
| Cc1cc([N+](=O)[O-])nn1CCCC(=O)NC1CCCCC1 | 3% | -7% | -16% |
| COC(=O)C1=C(c2ccc(-c3ccccc3)c(F)c2)C[C@@H]2CC[C@H]1N2C(=O)NCC1CC1 | -3% | u | 4% |
| Cc1cc(C)n2nc(C(=O)OCC(=O)Nc3cc(Cl)ccc3C)nc2n1 | 0% | -17% | 7% |
| N#CCn1c(CCl)nc2ccccc2c1=O | -3% | 7.9µM* | 1% |
| [O-][n+]1c2ccccc2cc2ccccc21 | 1% | 0% | 13% |

Full records from above.
`O=C(CCc1ccc(S(=O)(=O)N2CCOCC2)cc1)Nc1c(F)cccc1F` in the list: SARS PLP yeast = 0%; StopGo reporter = -12%; RE007 growth inh = -8%
`COc1cccc(OC)c1C(=O)Nc1cccc(S(=O)(=O)Nc2ccccc2Cl)c1` in the list: SARS PLP yeast = -5%; StopGo reporter = -2%; RE007 growth inh = 8%
`NS(=O)(=O)c1ccc(N2CCOCC2)c(C(=O)NCCCSc2ccccc2)c1` in the list: SARS PLP yeast = -5%; StopGo reporter = -17%; RE007 growth inh = 1%

High-throughput results from PubChem BioAssay.

An excerpt; rates above refer to the full screens.
